Assay outcomes: PubChem BioAssay, National Center for Advancing Translational Sciences (NCATS)
GLA inh pH 4.5 = alpha-galactosidase A (human) inhibition, pH 4.5. activity change, negative = inhibition, % at 105 µM. 230,000 tested, under 10 active. AID 1467. purified enzyme, 4-MU-alpha-Gal fluorescence, pH 4.5. P06280; inconclusive = small, poorly fitted or top-dose-only inhibition, or a rising curve; inactive = flat fitted curve, though single readings scatter; no compound was filed as active;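 note: 0% = full activity with enzyme and -100% = basal without enzyme; dose as in the result columns while the protocol names 77 µM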
Target sequence (P06280 whole entry, looked up): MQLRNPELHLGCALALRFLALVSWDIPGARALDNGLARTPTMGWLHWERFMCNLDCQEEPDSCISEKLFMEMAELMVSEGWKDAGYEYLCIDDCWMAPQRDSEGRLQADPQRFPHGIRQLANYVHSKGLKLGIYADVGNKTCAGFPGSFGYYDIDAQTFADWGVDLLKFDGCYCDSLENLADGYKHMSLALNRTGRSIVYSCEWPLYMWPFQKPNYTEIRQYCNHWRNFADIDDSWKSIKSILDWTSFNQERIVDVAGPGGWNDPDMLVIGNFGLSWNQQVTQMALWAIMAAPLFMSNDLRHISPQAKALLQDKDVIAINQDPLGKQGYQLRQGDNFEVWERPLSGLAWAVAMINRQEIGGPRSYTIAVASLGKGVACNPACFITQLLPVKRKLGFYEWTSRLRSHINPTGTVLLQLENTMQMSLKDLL
Rango release inh = inhibitors of RanGTP-induced Rango-importin beta complex dissociation; Potency, µM (series often up to 46.1 µM), inactives show at the top dose activity change, negative = inhibition; Biochemical FRET Rango-importin beta, RanGTP-induced dissociation; 0.071% of 340,000 active; AID 540253; active means falling FRET ratio curve, often poorly fitted, with flat reads before Ran was added; inconclusive means other falling curves, or compound fluorescence or quenching; inactive means flat or rising ratio curve;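 note: potency is the fitted concentration of half-maximal effect; % of control where 0% means no effect; nearly all actives have a fitted effect of over 45% in size; -100% = wells without RanGTP and RCC1; the record marks most hits as doubtful in a second field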
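Rango (0.1 uM)–importin beta (0.25 uM) complex; RanGTP-RCC1 trigger; 45 min RT; CFP/YFP FRET read.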
Rango-impB inh = prevents formation of the Rango-importin beta complex; Rango CFP/YFP FRET sensor + importin beta, 45 min; Q14974; AID 540263; 0.031% of 340,000 active; Potency, µM (highest dose often 92.2 µM), for the others: at the top dose inhibition of complex formation; active = rising FRET ratio curve, often small or poorly fitted; inconclusive = mostly compound fluorescence or quenching in the first reads; inactive = flat curves in all reads;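 note: potency is the fitted concentration of half-maximal effect; 0% = DMSO wells and 100% = buffer wells lacking importin beta; nearly all actives have a fitted effect of over 15% in size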
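Inhibition scored from the CFP 486 nm/YFP 530 nm FRET ratio 45 min after adding 0.125 microM importin beta to 50 nM Rango biosensor preincubated 5 min with compound (room temperature, PBS with DTT, Tween-20, BSA). No-importin wells as positive control.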
miR-21 FLuc = miR-21 reporter, rising signal; HeLa miR-21 FLuc reporter, luciferase, 48 h; Potency, µM (titrated, usually from 38.3 µM), for inactives: top-dose reporter change, positive = more light; 340,000 tested, under 10 active; active = well fitted rising curve with a large enough effect; inconclusive = small, poorly fitted or top-dose-only effect; inactive = no such curve, though single readings can be large or run the other way;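 note: % of control where 0% means no effect; miR-21 action dims this reporter so a rising signal means less miR-21 action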
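HeLa miR-21-FLuc reporter line, endogenous miR-21; 2000 cells/well in DMEM/10% FBS; compound titration up to ~40uM final, 48 h, 37 degree Celsius; luciferase detection reagent, 15 min lysis, CCD luminescence.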
Active calls of the source: *; ? = inconclusive; / = not tested or not shown; & = joins results of further samples. Not all compounds are listed; rates above refer to the full screens.

Results follow in this order: GLA inh pH 4.5	Rango release inh	Rango-impB inh	miR-21 FLuc
C[C@]12CCC3C(CC[C@@H]4[C@H]5O[C@H]5CC[C@]34C)C1CC[C@@H]2O (some centres not stated)
    /	-1%	0.0%	/
Clc1cccc(Cl)c1Cn1nnc(N2CCCC2)n1
    6	-13%	-2.3%	-53%
CN(C)C(Cc1ccccc1)C(=O)c1ccccc1 (configuration not stated)
    -4	22%	2.3%	-17%
C#C[C@]1(O)CCC2C3CC=C4C[C@H](O)CC[C@]4(C)C3CC[C@@]21C (some centres not stated)
    /	0%	-0.8%	/
O=C(c1ccc2c3c(cccc13)CC2)C1CCCN(Cc2ncc[nH]2)C1 (configuration not stated)
    -5	-3%	-2.8%	0%
COc1ccc(CNC(=O)CCC(=O)N2C[C@H]3C[C@H](C2)c2cccc(=O)n2C3)cc1OC
    /	7%	0.5%	3%
COc1ccccc1-n1c(Cc2ccccc2)nc2ccccc2c1=O
    -6	-23%	-4.6%	-9%
O=C(CSC1c2ccccc2-c2ccccc21)N/N=C/c1ccccc1O
    13	11%	3.8%	22%
O=C(NNc1c(F)c(F)cc(F)c1F)c1cc2ccccc2oc1=O
    3	8%	-4.1%	-60%
COc1ccc(C2=NCc3nnc(C)n3-c3ccc(Cl)cc32)cc1Cl
    -6	-5%	3.7%	-36%
CC(C)(C)c1nc(NCc2ccc3c(c2)OCO3)c2nnn(Cc3ccccc3Cl)c2n1
    -4	1%	-4.0%	-1%
COc1ccc(OCC(=O)N2CCN(C3CCC(c4ccccc4)CC3)CC2)cc1 (configuration not stated)
    0	0%	-2.0%	0%
CC(=NCCN1CCOCC1)c1c(O)n(C2CCCCC2)c(=O)[nH]c1=O
    6	-22%	-6.7%	-9%
O=C(O)Cn1cc(C(=O)c2ccccc2F)c2ccccc21
    /	?	-1.7%	2%
COc1ccc(C(=O)C2CCCN(Cc3ccccn3)C2)c(OC)c1 (configuration not stated)
    -1	-7%	3.4%	-2%

The list continues.
Results follow in this order: GLA inh pH 4.5	Rango release inh	Rango-impB inh	miR-21 FLuc
CCC1(CCO)C(=O)NC(=S)NC1=O
    /	-9%	2.1%	/
O=C(Nc1cccc(C(F)(F)F)c1)c1cccn(Cc2ccc3c(c2)OC(F)(F)O3)c1=O
    -14	-4%	-1.0%	0%
Cc1ccc(NC(=O)OC(C)CNC(=O)Oc2cccc(C)c2)cc1 (configuration not stated)
    -7	2%	0.2%	-49%
Cc1ccc(-n2nc(C)c3c2NC(=O)CSC3c2ccc3c(c2)OCO3)cc1 (configuration not stated)
    -5	-11%	2.2%	-9%
CCCCCCn1c(O)c(/C=N/N2CCCCCC2)c(=O)[nH]c1=O
    7	14%	0.4%	0%
CN(C)c1ccc(NC(=O)CN2C(=O)CN=C(c3ccccc3)c3ccccc32)cc1
    -5	14%	0.0%	-1%
O=C1NC(=O)N(c2ccc3c(c2)OCO3)C(=O)/C1=C\c1ccc(N2CCCCC2)o1
    -9	-13%	?	-6%
CN1C(=O)C(=Cc2ccccc2OCCOc2ccc([N+](=O)[O-])cc2)C(=O)N(C)C1=O
    5	19%	-1.8%	9%
NP(=O)(Oc1ccccc1)Oc1ccccc1
    /	-6%	2.8%	/
COC(=O)C1=C(c2ccc(C(C)=O)cc2)C[C@@H]2CC[C@H]1N2C(=O)N1CCOCC1
    /	-8%	1.0%	/
Cn1c(O)c(/C=N/NC(=O)c2ccncc2)c(=O)n(C)c1=S
    3	?	?	4%
C/C=C(\C)C(=O)N[C@@H](c1ccccc1)[C@@H](O)C(=O)O[C@H]1C[C@@]2(O)[C@@H](OC(=O)c3ccccc3)C3[C@](C)(C(=O)[C@H](OC(C)=O)C(=C1C)C2(C)C)[C@@H](O)C[C@H]1OC[C@@]31OC(C)=O (some centres not stated)
    /	-5%	?	17%
COc1ccc(CCNCc2ccccn2)cc1OC
    -1	-25%	-0.5%	0%
COc1ccc(CC(=O)N2CCN(C)CC2)cc1
    -7	-11%	1.7%	-5%
COc1ccc(OC)c(NC2=NCCS2)c1
    8	-2%	-3.2%	0%

(listing goes on)
Results follow in this order: GLA inh pH 4.5	Rango release inh	Rango-impB inh	miR-21 FLuc
Cc1c(N=Nc2c(O)n(-c3ccc(Br)cc3)c(=O)[nH]c2=O)c(=O)n(-c2ccccc2)n1C
    -1	-9%	2.6%	5%
Cc1cccn2c(=O)c3c(nc12)N1CCc2ccccc2C1C1(C3)C(=O)NC(=O)N(C)C1=O (configuration not stated)
    1	7%	1.0%	4%
COC(=O)C1=C(c2ccc(-c3ccccc3)c(F)c2)C[C@@H]2CC[C@H]1N2C(=O)N1CCCC1
    /	5%	-0.7%	/
COc1ccccc1-n1c(CNCC2CCCO2)nc2ccccc2c1=O (configuration not stated)
    0	10%	7.7%	-3%
COc1ccc(-n2c(O)c(C(C)=NCCCn3ccnc3)c(=O)[nH]c2=O)cc1
    -1	-3%	1.9%	10%
Cc1ccccc1OP(N)(=O)Oc1ccccc1C
    0	-5%	1.4%	-2%
CC(C)c1nc2oc3c(NCc4ccccn4)ncnc3c2c2c1COC(C)(C)C2
    /	1%	3.6%	/
OCCN1C2CCC1CC(O)(c1ccc(F)cc1)C2 (configuration not stated)
    4	-5%	0.2%	-1%
CCCCN1C(=O)NC(=O)C2(Cc3cc(C)ccc3N(C)C2)C1=O (configuration not stated)
    -8	?	0.0%	-3%
CN(C(=O)Cc1ccc2c(c1)OCO2)C1CCCN(Cc2ccccc2F)C1 (configuration not stated)
    /	-7%	1.3%	/
Fc1ccc(CNCCc2c[nH]c3ccccc23)cc1
    /	-6%	1.4%	-14%
CCn1ccnc1CN1CCCC(C(=O)c2cccc(C(F)(F)F)c2)C1 (configuration not stated)
    1	0%	-1.7%	6%
O=C(CCN1CC1)OCCOC(=O)CCN1CC1
    /	-13%	-1.0%	/
COc1ccc(Cn2c(O)c(C=NCCCn3ccnc3)c(=O)[nH]c2=O)cc1
    4	?	1.0%	4%
COc1cc(/C=C2\C(=O)NC(=O)N(c3ccccc3)C2=O)cc(OC)c1O
    -8	-22%	?	-1%

2 of the compounds above, with bars between the fields:
smiles | GLA inh pH 4.5 | Rango release inh | Rango-impB inh | miR-21 FLuc
Cc1ccccc1OP(N)(=O)Oc1ccccc1C | 0 | -5% | 1.4% | -2%
O=C(CCN1CC1)OCCOC(=O)CCN1CC1 | / | -13% | -1.0% | /

Continued.
Results follow in this order: GLA inh pH 4.5	Rango release inh	Rango-impB inh	miR-21 FLuc
CC(=NCCCn1ccnc1)c1c(O)n(C)c(=O)n(C)c1=O
    3	2%	-1.8%	0%
Cc1ccc(/C=C2/C(=O)NC(=O)N(Cc3ccc(F)cc3)C2=O)o1
    2	/	/	-2%
O=C(Cn1nc(-c2ccccc2)ccc1=O)N1CCC2(CC1)OCCO2
    -8	-5%	-0.4%	-1%
CCOc1ccc(CNCCc2ccc3c(c2)OCO3)cc1
    /	6%	-3.5%	-13%
O=C(C1CC(c2ccccc2O)=NO1)N1CCC2(CC1)OCCO2 (configuration not stated)
    6	-7%	-2.2%	-29%
Cc1cc(OC(=O)c2ccco2)c2c3c(c(=O)oc2c1)CCCC3
    2	-14%	-1.6%	9%
CC(=NCCCN1CCOCC1)c1c(O)n(-c2ccccc2C)c(=O)[nH]c1=O
    9	-4%	0.5%	-2%
CCC(=O)OC1CCC2C3CCC4CC(=O)C=CC4(C)C3CCC12C (configuration not stated)
    /	3%	-2.0%	/
O=C1/C(=C\c2cc3c(cc2Br)OCO3)N2CCC1CC2
    0	12%	-1.6%	2%
CCOC(=O)[C@@H]1[C@H]2COc3ccc(Br)cc3[C@@H]2N2C(=O)N(c3cccc(C)c3)C(=O)[C@]12C
    /	1%	2.2%	5%
CC(=O)N1CCN(CCN=Cc2c(O)n(-c3ccc(C)cc3)c(=S)[nH]c2=O)CC1
    /	1%	-3.0%	-2%
Cc1cccc(N2C(=O)/C(=C/N3CCN(C(=O)c4ccco4)CC3)C(=O)NC2=S)c1
    -9	-26%	-0.4%	-6%
CCOCCSc1nc2c(c(-c3cccs3)c1C#N)CC/C2=C/c1cccs1
    4	?	?	-9%
C=CCn1c(=O)c(C=Nc2cccnc2Cl)c(O)n(CCCC)c1=O
    -15	0%	-2.3%	-3%
O=C(Cn1ncn2c(cc3cc(F)ccc32)c1=O)N1CCC2(CC1)OCCO2
    /	-15%	-2.7%	0%

Continued:
Results follow in this order: GLA inh pH 4.5	Rango release inh	Rango-impB inh	miR-21 FLuc
Cc1ccc(OCCOc2cccc(C=C3C(=O)NC(=O)NC3=O)c2)cc1
    /	-22%	?	-46%
CC(=NCCCn1ccnc1)c1c(O)n(C2CCCCC2)c(=O)[nH]c1=O
    7	-12%	0.6%	-8%
O=C(c1ccc2c(c1)OCO2)C1CCCN(Cc2ccccn2)C1 (configuration not stated)
    11	0%	-2.5%	-5%
O=C(O)COc1ccccc1
    /	0%	-4.2%	/
COC(=O)C1=C(c2ccc(F)cc2OCc2ccccc2)C[C@@H]2CC[C@H]1N2C(=O)NC1Cc2ccccc2C1
    /	4%	0.3%	/
C=CC[N+]1(C)CC[C@]23c4c5ccc(O)c4O[C@H]2C(=O)CC[C@@]3(O)[C@H]1C5 (some centres not stated)
    /	4%	-2.7%	/
O=C1NC(=O)C(=Cc2ccc(N3CCOCC3)cc2)C(=O)N1
    -6	17%	1.5%	-3%
Cc1ccc(OP(=O)(Nc2cccc(C)c2)Oc2ccc(C)cc2)cc1
    /	-10%	0.1%	20%
COC(=NC1CCCC1)C(O)c1c[nH]c2ccccc12 (configuration not stated)
    -1	-10%	3.4%	-6%
COc1ccc(OC)c(N2C(=O)/C(=C/c3ccco3)C(=O)NC2=S)c1
    /	-8%	?	0%
O=P(C(Cl)Cl)(N1CCOCC1)N1CCOCC1
    /	-6%	-2.1%	0%
CSCCC(N=Cc1c(O)n(-c2ccc(Br)cc2)c(=O)[nH]c1=O)C(=O)OC(C)(C)C (configuration not stated)
    2	-3%	-1.1%	-1%
CCOC(=O)C(NC(=O)C(Cc1ccc(N(CCCl)CCCl)cc1)NC(C)=O)C(C)C (configuration not stated)
    0	-8%	0.1%	0%
COc1ccc(CN2C(=O)NC(=O)/C(=C\c3cc(OC)c(OC)c(OC)c3)C2=O)cc1
    -2	-13%	-1.4%	7%
COC(=O)C1=C(c2cccc(OCc3ccccc3)c2)C[C@@H]2CC[C@H]1N2C(=O)NCc1ccccc1
    /	3%	1.6%	/

Further compounds
Results follow in this order: GLA inh pH 4.5	Rango release inh	Rango-impB inh	miR-21 FLuc
CC(=NCCC(c1ccccc1)c1ccccc1)c1c(O)n(C)c(=O)n(C)c1=O
    6	-6%	-0.1%	-7%
COC(=O)C1=C(c2cccc(OCc3ccccc3)c2)C[C@@H]2CC[C@H]1N2C(=O)NCCOc1ccc(OC)cc1
    /	23%	-1.8%	/
CCOC(=O)C1(CCc2ccccc2)CCN(C2CCSCC2)CC1
    3	1%	1.3%	-1%
O[C@@H]1CCCC[C@H]1N1CCC(c2ccccc2)CC1
    -2&-1	14%	-1.0%	-1%&-7%
CCOc1cc(C2NCc3ccccc3-n3cccc32)ccc1OC (configuration not stated)
    /	-2%	0.0%	-6%
C=CCN1C(=O)/C(=C/c2cc(C)n(-c3cccnc3)c2C)C(=O)NC1=S
    9	-11%	-1.6%	0%
O=C(CCNS(=O)(=O)c1ccccc1)Nc1ccc(Cl)cc1C(=O)c1ccccc1
    -19	7%	-0.4%	21%
CCN1CCC2(CCNC2)C1 (configuration not stated)
    -4	5%	0.5%	-3%
C[C@]12CCC(=O)C[C@@H]1CC[C@@H]1[C@@H]2CC[C@@]2(C)[C@H]1CC[C@]2(C)O
    -6	/	/	-3%
O=c1[nH]c(=S)n(C2CC2)c(O)c1/C=N/Nc1cccc2ccccc12
    -22	-16%	?	18%
CN(C)C1(CNC(=O)Nc2ccc(Cl)c(Cl)c2)CCCCC1
    /	0%	-2.7%	-1%
CC(C)C[C@H]1C(=O)N2CCCC2[C@]2(O)O[C@](NC(=O)[C@@H]3C=C4c5cccc6[nH]cc(c56)CC4N(C)C3)(C(C)C)C(=O)N12 (some centres not stated)
    3&4	?	?	-13%
CCOP(=O)(OCC)C(O)c1cccc([N+](=O)[O-])c1 (configuration not stated)
    -13	8%	?	0%
CCN(CC)C(=O)c1ccc(NC(=O)COc2ccccc2F)cc1
    8	15%	0.2%	-29%
